# High-throughput results as filed in PubChem BioAssay.
# AID504770 = growth inhibitors of E. coli YBA685 in a screen for V. cholerae RctB (chromosome II replication) inhibitors; E. coli YBA685 rctB-dependent plasmid, OD600 growth, 3 h; hits give low values; z-score (test concentration not listed); 130,000 compounds, 0.27% hits;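 active = z-score under -2 on both plates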;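 note: wells of about 30 µL received 100 nL stock; score is relative to mean and SD of the test wells; the first replicate is given; strong numbers were not always called active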
# CapD inh = blocks the Bacillus anthracis CapD enzyme; purified CapD enzyme, fluorescence intensity read-out; hits give low values; some hits fall short of the stated cut; z-score (concentration not given with the values); 140,000 compounds, 0.23% hits;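 active = z-score under -4 in either of two replicates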;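 note: stock transfer was 100 nL into about 40 µL; score is relative to mean and spread of the plate; one replicate is shown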
# Numbers without * were called inactive; x = not tested or not shown; & = joins results of further samples. Compounds as they come; any-hit rate near 0.37%.
no.	molecule	AID504770	CapD inh
1	Cc1cccc(-n2ncc3ccccc3c2=O)c1	0.15	-0.14
2	CCc1ccccc1NC(=S)N(CCc1ccncc1)C(C)C	-0.65	-0.315
3	COc1cccc(OC(=O)N2CCOCC2)c1	0.85	x
4	OCC(CO)(CO)NC(=S)Nc1ccc(F)c(Cl)c1	-0.9	-0.195
5	CCc1c(C(=O)Nc2ccncc2)csc1C	-1	-0.295
6	O=C(Nc1nnc(C2CC2)s1)C1Cc2ccccc2CN1C(=O)c1ccco1 (centres undefined)	1.4	x
7	CCOC(=O)N1CCC(NC(=O)c2ccc(NC(=O)C3CCCO3)cc2)CC1 (centres undefined)	-0.45	-0.265
8	Fc1cc(F)c2nc(N3CCN(c4nc5ccccc5s4)CC3)sc2c1	-0.35	x
9	CC(=O)Nc1cccc(-c2nc3cc(Cl)cc(Cl)c3o2)c1	-0.2	3.12
10	O=C(NCc1ccccc1)C1C2C=CC3(CN(Cc4cccnc4)C(=O)C13)O2 (centres undefined)	0	1.11
11	FC(F)Oc1ccccc1-n1cccc1	0.45	x
12	Cc1nn2c(N(C)CCO)c3c(nc2c1-c1ccc(F)cc1)CCCC3	0.1	x
13	CCCC(C1C(=O)CC(C)(C)CC1=O)C1C(=O)CC(C)(C)CC1=O	-0.9	1.65
14	O=C(NO)C12CCCC(CCC1)C2	-0.7	-0.04
15	N=C(N)c1cc(Cl)cc(Cl)c1	0.05	0.4
16	O=c1[nH]ncc(N2CCCCCC2)c1Cl	-0.05	-0.185
17	CCOc1ccc(OCCBr)cc1	0	-0.715
18	COC(=O)C1=C(C)N(C)C(=O)N(C)C1c1ccc(O)cc1 (centres undefined)	-0.3	x
19	CCOC(=O)C1C(=O)C=C(c2cccs2)CC1c1ccc(OC)c(OC)c1Cl (centres undefined)	x	-0.965
20	COc1cc(Br)cc2cc(C(=O)N3CCN(c4ccccn4)CC3)c(=O)oc12	-0.35	0.965
21	COc1ccccc1N1C(=O)C(Cc2ccccc2)N=C1N1CCC(C)CC1 (centres undefined)	0.8	4.99
22	O=C1CSC(c2ccc([N+](=O)[O-])cc2)N1c1ccc(Oc2ccccc2)cc1 (centres undefined)	x	-0.02
23	COC(=O)c1cc2cc(NC(=O)c3cccc(C(F)(F)F)c3)ccc2s1	x	0.46
24	CCOc1cc(C(c2c(C)n(C)n(-c3ccccc3)c2=O)c2c(C)n(C)n(-c3ccccc3)c2=O)ccc1O	x	-0.025
25	CC(C)OCCCNC1CCN(C)CC1	-0.6	x
26	CC1(C)OC(=O)N(c2ccccc2)/C1=C\C[N+](C)(C)C	-0.9	-0.105
27	COc1ccc(C(=O)Oc2ccccc2NC2=NS(=O)(=O)c3ccccc32)c(OC)c1	x	-0.345
28	CC(=O)N1CCCc2cc(S(=O)(=O)NCc3ccc4c(c3)OCO4)ccc21	-0.85	-0.325
29	O=C(COc1ccc(-c2nccc(-c3cccs3)n2)cc1)N1CCOCC1	x	2.17
30	O=C(N/N=C/c1cnc(N2CCN(c3ccccc3)CC2)s1)c1cccnc1	x	-0.11

# From no. 23 as far as 24, copied from above:
no.	molecule	AID504770	CapD inh
23	COC(=O)c1cc2cc(NC(=O)c3cccc(C(F)(F)F)c3)ccc2s1	x	0.46
24	CCOc1cc(C(c2c(C)n(C)n(-c3ccccc3)c2=O)c2c(C)n(C)n(-c3ccccc3)c2=O)ccc1O	x	-0.025

# Remaining list, next part:
no.	molecule	AID504770	CapD inh
31	COC(=O)CSc1ccc2c(N)c(C(=O)OC)sc2c1	0.4	43.4
32	O=C(Nc1cccnc1)OCC(F)(F)F	-1.4	x
33	O=C(CN(c1ccccc1)S(=O)(=O)c1ccccc1)Nc1ccccc1	x	-0.67
34	CCOC(=O)c1oc2ccccc2c1CBr	-0.1	0.88
35	CCC(C)NC(=O)COc1ccc(Br)c(C)c1 (centres undefined)	0.95	0.605
36	Cc1cc(=O)[nH]c(NC(=O)C2CC2)n1	x	0.675
37	O=C(NNC(=O)c1csc(-c2ccc(C(F)(F)F)cc2Cl)n1)c1cn[nH]c1	x	0.185
38	COc1ccc(NC(=O)CC2(CC(=O)O)CCCCC2)cc1OC	0.8	0.525
39	O=C(CSCc1ccc(Cl)cc1)c1ccccc1F	-0.35	-0.33
40	COC(=O)Cc1nc(NCCc2ccc(OC)c(OC)c2)c2c(C)c(C)sc2n1	x	-0.435

# Reprinted from the part before: 7 compounds, followed by the next part.
no.	molecule	AID504770	CapD inh
34	CCOC(=O)c1oc2ccccc2c1CBr	-0.1	0.88
35	CCC(C)NC(=O)COc1ccc(Br)c(C)c1 (centres undefined)	0.95	0.605
36	Cc1cc(=O)[nH]c(NC(=O)C2CC2)n1	x	0.675
37	O=C(NNC(=O)c1csc(-c2ccc(C(F)(F)F)cc2Cl)n1)c1cn[nH]c1	x	0.185
38	COc1ccc(NC(=O)CC2(CC(=O)O)CCCCC2)cc1OC	0.8	0.525
39	O=C(CSCc1ccc(Cl)cc1)c1ccccc1F	-0.35	-0.33
40	COC(=O)Cc1nc(NCCc2ccc(OC)c(OC)c2)c2c(C)c(C)sc2n1	x	-0.435
41	Cc1nc(-c2cccc(NC(=O)CN3CCN(S(=O)(=O)Cc4ccccc4)CC3)c2)cs1	-0.85	x
42	COC(=O)c1ccccc1Sc1nc(SC)nc2c1sc1ccccc12	x	0.165
43	O=C1CC(c2ccco2)CC2=C1C(c1ccc(Cl)cc1)n1ncnc1N2 (centres undefined)	-0.75	x
44	COc1ccc(C(=O)CC2(O)C(=O)N(Cc3ccc(Cl)cc3)c3ccccc32)c(OC)c1 (centres undefined)	x	0.165
45	CC1CCCCN1C(=O)Nc1c[nH]c2ccccc12 (centres undefined)	-0.55	x
46	Cc1c(-c2ccccc2)nnn1-c1ccc(F)c(Cl)c1	x	0.435
47	Cc1ccc2c(c1)-c1c(cnn1CC(=O)Nc1ccc(S(=O)(=O)N3CCCCC3)cc1)CO2	0.25	-0.14
48	O=C(c1cccc(Cl)c1)c1nnc(-c2ccccc2)o1	-0.3	x
49	Cc1cccc(C)c1NC(=O)CC(C(=O)O)N(C)C (centres undefined)	-0.1	-0.435
50	COCc1c(C)cc(C)c(C=C(C#N)C#N)c1C	-0.7	-0.09
51	O=C(NCc1ccc(F)cc1)c1ccc(S(=O)(=O)N2CCCC2)cc1	-0.25	x
52	CCOC1(OCC)N=C(N)C2(C#N)C(c3ccccc3F)C12C#N (centres undefined)	0.45	0.06
53	O=C1CCCC2=C1C(c1ccc(F)cc1)c1c([nH]c(=O)[nH]c1=O)N2 (centres undefined)	-0.7	5.51
54	c1ccc2cc(-c3cc4ccccc4[nH]3)ccc2c1	x	112
55	CC1CN(C(=O)C(C)C)CC(C)O1 (centres undefined)	-0.85	0.035
56	O=C(CSc1nc2ccccc2o1)NC1Cc2ccccc2C1	x	0.085
57	COC(=O)C1CCC(C)(C(=O)O)C1(C)C (centres undefined)	x	-0.07
58	COC(=O)CSC1=C(C#N)C(c2cccs2)C(C(=O)Nc2ccccc2C)=C(C)N1 (centres undefined)	-0.95	0.35
59	O=C(Nc1ccc(Cl)cc1)c1cnn(-c2ccccc2)c1-c1ccccc1	x	-0.1
60	CCOc1cc(/C=C2/SC(=Nc3ccccc3C)NC2=O)ccc1O	x	-0.965
61	Cc1cc2c(cc1C)CN(c1ccccc1)C2	x	0.245
62	COC(=O)C1CC(C)=CC(C)C1C(=O)O (centres undefined)	-0.75	x
63	COc1ccc(Br)cc1CNc1ccc(N2CCOCC2)cc1	-0.55	0.925
64	COc1ccc2[nH]cc(CCNC(=O)OCC3CCC4CC3C4(C)C)c2c1 (centres undefined)	x	-0.64
65	CC(C)Cc1ccc(C(C)c2nc(-c3cccs3)no2)cc1 (centres undefined)	-0.15	0.13
66	O=C(CCCN1C(=O)C2C3C=CC(C3)C2C1=O)N1CCN(c2ccc(F)cc2)CC1 (centres undefined)	x	-0.495
67	O=C(c1ccc(N2CCOCC2)nc1)N1CCOCC1	-0.1	-0.46
68	Cc1cccc(N2C(=O)C3C(c4ccccc4)OC4(C(=O)c5ccccc5C4=O)C3C2=O)c1C (centres undefined)	x	-0.09
69	O=C1/C(=C/c2ccc(-c3cc(Cl)ccc3Cl)o2)C=C(c2ccccc2)N1c1ccccc1Cl	x	0.3
70	Cc1ccc(-n2c(C)c(CC(=O)O)c3c2CC(C)(C)CC3=O)cc1Cl	x	-0.005
71	COc1cccc(-c2nnn(CC(=O)N3CCCC3)n2)c1	0	x
72	Cc1nnc(Nc2cccc(F)c2)s1	-1.9	0.095
73	CC1OC(C)C(C)C(c2ccccc2O)O1 (centres undefined)	-0.1	-0.02
74	Clc1ccc(OCCN2CCNCC2)cc1	-0.9	8.93
75	Cc1ccc(S(=O)Cc2ccc(C(=O)NC3CCCC(C)C3C)o2)cc1 (centres undefined)	0	-0.04
76	O=C(O)c1ccccc1NC(=O)C(F)(F)F	-0.5	8.92
77	N#C/C=N/N(c1ccccc1)c1ccccc1	-0.8	x
78	CCN1CCN(Cc2ccc(NC(=O)c3cc4ccc5cccnc5c4[nH]3)cc2)CC1	0.85	-1.85
79	Cc1cc(C)cc(NC(=O)Cc2noc3ccc(C)cc23)c1	-1.2	-0.415
80	C=CCn1c(CNC(=O)c2ccccc2)n[nH]c1=S	-1.7	x

# One compound at a time, as listed above. Screens in order: AID504770, CapD inh
# `COC(=O)c1ccccc1Sc1nc(SC)nc2c1sc1ccccc12` as listed: x, 0.165
# `CC1OC(C)C(C)C(c2ccccc2O)O1` (centres undefined) as listed: -0.1, -0.02

# Later entries.
no.	molecule	AID504770	CapD inh
81	CC(C)CC(C(=O)Nc1ncn[nH]1)N1C(=O)c2ccccc2C1=O (centres undefined)	x	-0.075
82	COC(=O)c1c(C)nn(C(C)=O)c1COc1ccccc1	0.5	-0.1
83	COC(=O)C1=NNC(c2ccccc2)(c2ccccc2)C1	-0.05	3.45
84	Cc1cc(C(=O)O)ccc1-c1ccc(/C=N/n2cnnc2)o1	-1.35	3.04
85	COC(=O)C1=C(C)N=c2s/c(=C3\C(=O)N(C)c4ccccc43)c(=O)n2C1c1cccs1 (centres undefined)	x	-0.225
86	Cc1onc(-c2c(F)cccc2Cl)c1C#N	x	-0.07
87	O=C(c1cc2ccccc2oc1=O)N1CCC2(CC1)OCCO2	1.85	3.66
88	CCOC(=O)C1=C(C)NC2=C(C(=O)CC(C)(C)C2)C1C (centres undefined)	-0.1	12.8
89	O=C(O)CSc1nnc2nnc3ccccc3n12	-0.45	-2.19
90	Cc1cc(C(F)(F)F)nn1CC(=O)Nn1c(-c2ccccc2F)nc2ccccc2c1=O	x	-0.595

# Retrieved by structure from above, 2 records:
no.	molecule	AID504770	CapD inh
89	O=C(O)CSc1nnc2nnc3ccccc3n12	-0.45	-2.19
81	CC(C)CC(C(=O)Nc1ncn[nH]1)N1C(=O)c2ccccc2C1=O (centres undefined)	x	-0.075

# Going on with the list.
no.	molecule	AID504770	CapD inh
91	Cc1cc(Oc2c([N+](=O)[O-])cc(C(F)(F)F)cc2[N+](=O)[O-])c2c(Cl)ccc(C)c2n1	x	-0.88
92	O=C1OCCC1N1C(=O)c2ccccc2S1(=O)=O (centres undefined)	-1.85	x
93	Cc1cccc(Nc2ccc(NC(=O)c3ccccc3)c3c2C(=O)c2ccccc2C3=O)c1	x	0.015
94	Cc1cc(C)c(CO)c(C)c1CO	1.35	x
95	O=C1C=CC(=O)N1c1cc(Cl)cc(Cl)c1	x	0.045
96	Cc1ccc2c(c1)-c1c(cnn1CC(=O)NCCCN1C(C)CCCC1C)CO2 (centres undefined)	-0.15	0.515
97	CC(C)(C)n1nc2c(c1NC(=O)c1ccc(S(=O)(=O)N3CCOCC3)cc1)CS(=O)(=O)C2	x	-0.175
98	CC(=O)N1CCN(c2ccc(NC(=O)COc3ccc4ccccc4c3)cc2)CC1	0.8	0.145
99	O=C(Nc1ccc([N+](=O)[O-])cc1Cl)c1cc(Cl)ccc1O	x	-0.355&-0.145
100	CN(C)S(=O)(=O)c1cccc(COC(=O)c2cn(-c3ccccc3)nc2-c2cccs2)c1	0.55	x
101	Cc1ccc(-c2cn3c(n2)SCC3)cc1	-1.75	-0.975
102	CC(C)(C)c1ccc(C(=O)NC2CCSC2=O)cc1 (centres undefined)	-0.2	x
103	Cc1ccc2cc3c(nc2c1)OCC3	-1.4	5.41
